Assay outcomes from PubChem BioAssay.
Sfp inh – inhibitors of Bacillus subtilis Sfp phosphopantetheinyl transferase | Q9F4F7 | Biochemical Sfp PPTase activity, qHTS | Potency, µM, without a hit: max response, negative = inhibition, most hits filed as inhibitors | 310,000 compounds, 3.5% hits | AID 1490; active means well fitted inhibition curve with a large enough effect; inconclusive means small, poorly fitted or top-dose-only effect, or another doubt; inactive means no such curve, though single readings can be large or run the other way;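 further: the enzyme is Sfp with the accession as filed and its product quenches rhodamine fluorescence; potency means the concentration at half of the fitted maximal effect; 0% = enzyme reaction without inhibitor and -100% = no enzyme wells; top concentration of the series not given in the record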
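Fluorescence-quenching assay with 15 nM Sfp, 5 uM rhodamine-CoA and 12.5 uM BHQ-2-labelled ybbR peptide in pH 7.6 Hepes/MgCl2 buffer. Enzyme was pre-incubated with compound for 15 min at room temperature. Rate was taken from the 30-min fluorescence change (525/598 nm).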
Six1-Eya2 inh – inhibitors of human Six1/Eya2 interaction; 360,000 compounds, 0.56% hits; Q15475+O00167; AlphaScreen GST-Six1/His-Eya2 binding, biochemical; hits give low values; control for the full effect not named in the record; activity change, % (test concentration not listed); in the data active = activity change below about -65%; inconclusive = about -30% to -65%; inactive = above about -30%; further: on the % scale 0 is the no-effect control and ±100 the full control effect
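Six1/Eya2 binding was read as AlphaScreen signal after compounds were pinned into GST-Six1 plus His-tagged Eya2 (5X stock 250/500 nM) in pH 8.0 Tris/NaCl/TCEP buffer, beads added, then incubated 1 h, 37 C, dark.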
TRPV1 PAM – potentiators of human vanilloid receptor 1 (TRPV1); AID 540277; potentiation, % at 8.33 µM; 320,000 compounds, 0.02% hits; Q8NER1; TRPV1-expressing cells, Fluo-8 calcium influx, capsaicin EC20 potentiation; host cell line not named in the record; control for the full effect not named in the record; active means potentiation above 80%; inconclusive means 30% to 80%; inactive means below 30%; further: 0% is about no effect
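Cells expressing TRPV1 were dye-loaded with Fluo-8 and read kinetically: 10 s baseline, 3 min after compound (agonist portion), then 2 min after EC20 capsaicin (allosteric enhancer portion). Calcium-bound dye fluorescence at 480/520 nm.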
PINK1 expr mod – changes PINK1 expression; PINK1 immunofluorescence, high-content cytometry, 24 h; Potency, µM (top dose mostly 76.6 µM), for inactives: top-dose activation (PINK1 increase), most hits filed as activators; 410,000 compounds, 0.2% hits; AID 624263; active = well fitted activation curve with a large enough effect; inconclusive = small, poorly fitted or top-dose-only effect; inactive = flat fitted curve, though single readings scatter; cell line not stated here;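 further: potency means the concentration at half of the fitted maximal effect; % of control where 0% means no effect; nearly all actives have a fitted effect of over 65% in size; a mitochondrial uncoupler was the plate control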
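Compound titrations (5 concentrations, 24 h) on a stable cell line; DMSO and CCCP controls. Endpoint: fixed-cell PINK1 immunofluorescence with mitochondrial, cell and nuclear markers, scanned by microplate cytometer.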
CtBP-E1A blk – inhibitors of CtBP/E1A interaction; AlphaScreen GST-E1A/His-CtBP binding, 1536-well; hits give low values; control for the full effect not named in the record; activity change, % (test concentration not listed); 340,000 compounds, 0.49% hits; AID 651724; in the data active means activity change below about -65%; inconclusive means about -30% to -65%; inactive means above about -30%; further: on the % scale 0 is the no-effect control and ±100 the full control effect
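GST-E1A and His-tagged CtBP (125 nM each as 5X stock) were preincubated with pin-transferred compound for 2 h at 37 °C in the dark, then glutathione donor and nickel acceptor beads were added for 1 h before AlphaScreen reading.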
D2 ag – human D2 receptor agonism in beta-arrestin assay. P14416. DiscoveRx PathHunter D2 beta-arrestin, luminescence, 90 min; 100% = 57 uM dopamine signal. activation, % (test concentration not listed). 360,000 compounds, 0.084% hits; in the data active = activation above about 40%; inconclusive = about 15% to 40%; inactive = below about 15%; further: compound concentration not given in the record; the text of the record calls up to 30% inactive
Target sequence (P14416 whole entry, looked up): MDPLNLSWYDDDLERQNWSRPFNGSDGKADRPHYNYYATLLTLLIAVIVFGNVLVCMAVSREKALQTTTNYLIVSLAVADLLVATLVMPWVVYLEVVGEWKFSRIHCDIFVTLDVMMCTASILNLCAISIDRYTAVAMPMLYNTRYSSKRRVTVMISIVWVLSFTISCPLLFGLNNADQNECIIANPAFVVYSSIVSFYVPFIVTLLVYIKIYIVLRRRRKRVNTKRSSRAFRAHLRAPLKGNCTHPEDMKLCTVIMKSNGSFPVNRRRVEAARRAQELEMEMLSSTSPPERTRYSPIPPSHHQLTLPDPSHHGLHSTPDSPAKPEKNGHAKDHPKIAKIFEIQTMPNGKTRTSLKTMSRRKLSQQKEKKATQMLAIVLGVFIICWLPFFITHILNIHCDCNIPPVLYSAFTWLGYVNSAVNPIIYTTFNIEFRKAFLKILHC
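DiscoveRx PathHunter D2 beta-arrestin cells (2,100/well) attached overnight, then compound-stimulated 90 min at 37 C in HBSS/10 mM HEPES/0.1% Tween-20 buffer; beta-galactosidase complementation read by luminescence after 1 h at ambient temperature. Dopamine 57 uM final (EC100) as control.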
D2 potentiator – human D2 receptor positive allosteric modulation | P14416 | DiscoveRx D2 beta-arrestin cells, luminescence, 90 min; 100% = 57 uM dopamine signal | potentiation, % (concentration not given with the values) | 360,000 compounds, 0.23% hits | AID 624464; active = potentiation of 50% or more; inconclusive = 30% to 50%; inactive = 30% or less;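 further: tested on top of an EC20 dose of dopamine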
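D2 cells co-treated with compound plus 50 nM dopamine (EC20) for 90 min at 37 deg C to detect potentiation. Beta-arrestin recruitment was read as enzyme-fragment luminescence after 1 h at ambient temperature. Full response was set by 57 uM dopamine.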
Starred values were filed as active, the others as inactive; ? = inconclusive; / = not tested or not shown; & = joins results of further samples; [ ] = another dose, or the depositor's remark.

[1] CCOc1c(Br)cc(CNc2ncn[nH]2)cc1OC
[2] CC1=NN(C(N)=S)C(=O)C1N=Nc1ccc(S(N)(=O)=O)cc1 (stereo unspecified)
[3] CCOC(=O)CSc1nc2sc(C)c(C)c2c(=O)n1C
[4] COc1cc(C2N(c3ccccc3)CCN2c2ccccc2)ccc1OC(C)=O
[5] COc1cc2oc(=O)cc(CN3CCN(C(C)=O)CC3)c2cc1Cl
[6] COCCn1c(SCC(=O)NC2CCCC2)nnc1C(C)C
[7] CC1CCN(C2CC(=O)N(c3ccc(Br)cc3Br)C2=O)CC1 (stereo unspecified)
[8] Cc1nn(-c2ccccc2)c2c1CC(=O)Nc1ccccc1-2

assay / entry	1	2	3	4	5	6	7	8
Sfp inh	23%	-27%	24%	1%	/	15%	-29%	/
Six1-Eya2 inh	4	-2	2	?	1	11	-1	-5
TRPV1 PAM	-2	-2	-1	4	/	-7	-7	/
PINK1 expr mod	1.1%	-1.8%	3.3%	3.9%	-0.6%	4.7%	-1.4%	18%
CtBP-E1A blk	4	/	-3	-16	6	17	-3	3
D2 ag	0.0	-7.0	-5.7	-3.6	-4.0	-3.4	-0.8	-2.6
D2 potentiator	0	-35	-2	6	-7	-7	-2	-18

[9] O=C(CN1C(=O)CCC1=O)NC(=O)NC1CCCC1
[10] Cc1ccc(C)c(N2N=C(C(=O)Nc3ccc(N4CCOCC4)cc3)CCC2=O)c1
[11] O=c1c2ccccc2c2ccccc2c(=O)n1Cc1ccco1
[12] COC(=O)c1c(NC(=O)C(C)(C)C)sc2c1CCN(Cc1ccccc1)C2
[13] O=C(NCCO)C1(c2ccccc2)CCCC1
[14] O=C(Nc1cccc(-c2nc3ccccc3s2)c1)C1=COCCO1
[15] CC(=O)C1=C(O)C(=O)N(c2nccs2)C1c1ccc(Br)cc1 (stereo unspecified)
[16] CCn1c(=S)sc2c(=O)[nH]c(SCC(=O)Nc3cc(OC)ccc3OC)nc21

assay / entry	9	10	11	12	13	14	15	16
Sfp inh	2%	/	?	-1%	2%	3%	?	-15%
Six1-Eya2 inh	-4	-3	0	-3	4	-8	-9	-19
TRPV1 PAM	/	-5	1	-10	-7	-17	-10	12
PINK1 expr mod	0.2%	-2.6%	-1.5%	3.4%	0.0%	1.8%	4.1%	0.4%
CtBP-E1A blk	1	-4	1	5	-2	-6	-10	-15
D2 ag	-3.9	-3.2	-2.0	-7.6	-2.6	-0.5	-1.4	-2.3
D2 potentiator	-2	-11	11	-14	8	-3	-3	-6

[17] Cn1c(=O)n(Cc2ccccc2)c(=O)c2c1nc(NCC1CCCO1)n2Cc1ccccc1 (stereo unspecified)
[18] CN1C(=O)CSc2ccc(NC(=O)NCc3cccnc3)cc21
[19] CCc1cc2c(=O)oc(-c3ccc(Br)cc3)nc2s1
[20] NC(=O)c1ccc[n+]([C@H]2O[C@@H](COP(=O)([O-])OP(=O)(O)OC[C@H]3O[C@@H](n4cnc5c(N)ncnc54)[C@H](O)[C@@H]3O)[C@H](O)[C@@H]2O)c1
[21] Cc1nn(-c2ccccc2)c(N2CCCC2)c1/C=N/Nc1ccc(S(=O)(=O)Nc2ccccc2)cc1[N+](=O)[O-]
[22] CCOCC(=O)Nc1nc(-c2ccccc2)c(CC)s1
[23] Cc1ccc(O)c([C@H](CCN(C(C)C)C(C)C)c2ccccc2)c1
[24] COC(=O)COc1cccc(NC(=O)c2cccc(C)c2)c1

assay / entry	17	18	19	20	21	22	23	24
Sfp inh	-9%	9%	3%	/	3%	3%	14%&16%	-3%
Six1-Eya2 inh	-2	-3	-14	0	-19	2	-4&0	8
TRPV1 PAM	8	-2	-25	-7	-5	-3	-15	-7
PINK1 expr mod	1.8%[38.3 µM]	?	3.3%	6.1%	1.7%	0.6%	-0.2%&0.2%	0.1%
CtBP-E1A blk	-14&-8	10	4	81	-12	3	-2&0	2
D2 ag	-2.4	-1.5	-3.4	-0.3	-4.7	-4.3	-0.3&-6.4	-3.3
D2 potentiator	-3	-8	-6	6	-16	-1	-14&-18	0

[25] Cc1ccc(CN2C(=O)CSC2c2ccc(F)cc2)cc1 (stereo unspecified)
[26] C/C(=N\NC(=O)C1CC1)c1ccccc1Br
[27] COc1ccc(N(CC(=O)NCc2ccco2)S(=O)(=O)c2c(C)nn(C)c2C)cc1
[28] CN(C)CCCN1C(=O)c2oc3ccccc3c(=O)c2C1c1cccs1 (stereo unspecified)
[29] CCOc1cccc(CN2CCC(Oc3ccc(C(=O)NCc4ccccn4)cc3)CC2)c1
[30] NS(=O)(=O)c1ccc(CCNC(=O)C(=O)NCC2OCCN2S(=O)(=O)c2cc(F)ccc2F)cc1 (stereo unspecified)
[31] COCC(=O)Nc1nnc(Cc2ccc(OC)cc2)s1
[32] NS(=O)(=O)c1ccc(CCNC(=O)CN2C(=O)NC(c3ccccc3)(c3ccccc3)C2=O)cc1

assay / entry	25	26	27	28	29	30	31	32
Sfp inh	0%	17%	-3%	9%	8%	13%	6%	/
Six1-Eya2 inh	2	2	-3	-2	-3	-5	0	2
TRPV1 PAM	9	-10	/	4	-16	-5	-5	/
PINK1 expr mod	0.4%	0.2%	-0.2%	2.1%[38.3 µM]	-0.9%	1.8%	1.8%	0.0%
CtBP-E1A blk	/	5	-2	-3	-1	0	-1	8
D2 ag	-3.0	1.0	-3.1	-1.8	2.7	5.2	0.4	-1.0
D2 potentiator	-6	-3	-8	-12	-13	-4	-12	-5

[33] c1cncc(CNc2ncnc3sc4c(c23)CCCC4)c1
[34] COc1ccc(COc2ccsc2C(=O)Nc2ccc(Cl)c(Cl)c2)cc1
[35] COc1cc(SC)ccc1C(=O)NCCCn1ccnc1
[36] COc1ccc(C(=O)N2CCCC(c3cc(C(=O)NCc4cccnc4)no3)C2)cc1 (stereo unspecified)
[37] CC(C)=CC1C(C(=O)Nc2ccc(S(=O)(=O)N3CCOCC3)cc2)C1(C)C (stereo unspecified)
[38] COc1cccc(C(=O)Cn2c(NCCO)nc3ccccc32)c1
[39] COc1ccc(-c2onc3ccc(C(=O)/C=C/N(C)C)cc23)cc1
[40] COc1ccc(Cc2nc(-c3ccc(-n4cccc4)cc3)no2)cc1OC

assay / entry	33	34	35	36	37	38	39	40
Sfp inh	12%	56µM*	19%	/	/	-10%	5%	?
Six1-Eya2 inh	-18	5	-5	21	6	3	22	-10
TRPV1 PAM	11	13	3	/	-13	-13	-7	16
PINK1 expr mod	1.1%	10µM*	1.4%	0.5%	13%	-0.6%	-1.0%	2.3%
CtBP-E1A blk	17	13	1	0	-16	3	0	-12
D2 ag	0.0	-1.5	-3.2	-3.2	5.5	0.1	?	-3.5
D2 potentiator	-6	-4	-11	-1	5	-7	25	0

Reformatted bar-delimited: part of the list above
cpd | smiles | Sfp inh | Six1-Eya2 inh | TRPV1 PAM | PINK1 expr mod | CtBP-E1A blk | D2 ag | D2 potentiator
30 | NS(=O)(=O)c1ccc(CCNC(=O)C(=O)NCC2OCCN2S(=O)(=O)c2cc(F)ccc2F)cc1 (stereo unspecified) | 13% | -5 | -5 | 1.8% | 0 | 5.2 | -4
31 | COCC(=O)Nc1nnc(Cc2ccc(OC)cc2)s1 | 6% | 0 | -5 | 1.8% | -1 | 0.4 | -12
32 | NS(=O)(=O)c1ccc(CCNC(=O)CN2C(=O)NC(c3ccccc3)(c3ccccc3)C2=O)cc1 | / | 2 | / | 0.0% | 8 | -1.0 | -5
33 | c1cncc(CNc2ncnc3sc4c(c23)CCCC4)c1 | 12% | -18 | 11 | 1.1% | 17 | 0.0 | -6
34 | COc1ccc(COc2ccsc2C(=O)Nc2ccc(Cl)c(Cl)c2)cc1 | 56µM* | 5 | 13 | 10µM* | 13 | -1.5 | -4
35 | COc1cc(SC)ccc1C(=O)NCCCn1ccnc1 | 19% | -5 | 3 | 1.4% | 1 | -3.2 | -11
36 | COc1ccc(C(=O)N2CCCC(c3cc(C(=O)NCc4cccnc4)no3)C2)cc1 (stereo unspecified) | / | 21 | / | 0.5% | 0 | -3.2 | -1
37 | CC(C)=CC1C(C(=O)Nc2ccc(S(=O)(=O)N3CCOCC3)cc2)C1(C)C (stereo unspecified) | / | 6 | -13 | 13% | -16 | 5.5 | 5
38 | COc1cccc(C(=O)Cn2c(NCCO)nc3ccccc32)c1 | -10% | 3 | -13 | -0.6% | 3 | 0.1 | -7
39 | COc1ccc(-c2onc3ccc(C(=O)/C=C/N(C)C)cc23)cc1 | 5% | 22 | -7 | -1.0% | 0 | ? | 25

Carrying on.
[41] O=C(CN1C(=O)c2cccc3cccc1c23)N1CCN(c2ccc(F)cc2)CC1
[42] CCN(CC)C(=O)c1cn(CCC#N)nc1-c1ccc2c(c1)OCCO2
[43] Cc1cccc(OCC(=O)Nc2ccc3nc(C)sc3c2)c1
[44] CN(CC(=O)Nc1ccccc1Cl)C(=O)c1ccc(N2C(=O)CCC2=O)cc1
[45] Cc1ccc2c(cnn2C(=O)CCCC(=O)NCc2ccc(F)cc2)c1
[46] CCOC(=O)c1c(C)[nH]c(C(=O)C(C)Sc2ccc(Cl)cc2)c1C (stereo unspecified)
[47] CC(C)C(=O)Nc1nnc(SCC(=O)NC2CCCC2)s1
[48] CN(CCCNC(=O)C1CCN(S(=O)(=O)N2CCC3(CC2)OCCO3)CC1)Cc1ccccc1

assay / entry	41	42	43	44	45	46	47	48
Sfp inh	-9%	23%	4%	/	-12%	2%	14%	12%
Six1-Eya2 inh	11	7	4	6	12	-9	-4	0
TRPV1 PAM	-4	1	-4	14	-19	13	18	-3
PINK1 expr mod	17%	0.6%	14%	0.8%	8.7%	0.1%	5.9%	2.5%[38.3 µM]
CtBP-E1A blk	5	-7	/	5	11	-1	-15	9
D2 ag	0.3	-2.0	-3.3	-7.7	-0.9	0.9	-0.5	0.5
D2 potentiator	-9	-4	-5	-13	-4	2	-6	-2
